RE007 growth inh: less growth of the S. pombe RE007 Vpr strain | S. pombe RE007 Vpr strain, BacTiter-Glo ATP luminescence, 24 h; control for the full effect not named in the record | Potency, µM (series often up to 92.2 µM), without a hit: at the highest dose activity change, negative = less growth | actives 0.21% (n = 360,000) | AID 651644; active = well fitted falling curve with a large enough effect; inconclusive = small, poorly fitted or top-dose-only effect; inactive = no such curve, though single readings can be large or run the other way;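 also: % is scaled to controls: 0 for no effect and ±100 for the full control effect; nearly all actives have a fitted effect of over 50% in size; the assay follows cell death caused by Vpr and the record does not say whether a fall means rescue or toxicity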
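Fission yeast strain RE007, carrying one chromosomally integrated HIV-1 vpr copy, was seeded at OD 0.01 in PMG+AL medium with 23 nL pinned compound. After 24 h at 30 °C and 99% humidity, viability was read by BacTiter-Glo luminescence.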
SARS PLpro yeast: inhibitors of SARS-CoV papain-like protease in yeast; S. cerevisiae expressing SARS-CoV PLpro, growth rescue; control for the full effect not named in the record; Potency, µM (top dose mostly 32.9 µM), without a hit: at the highest dose activity, positive = growth rescue; actives 0.19% (n = 330,000); active means well fitted rising curve with a large enough effect; inconclusive means small, poorly fitted or top-dose-only effect; inactive means no such curve, though single readings can be large or run the other way; also: 0% is about no effect; nearly all actives have a fitted effect of over 55% in size; growth read by luminescence after 48 h
2A StopGo: FMDV 2A StopGo reporter, luciferase signal. actives 1.2% (n = 410,000). Potency, µM (highest dose often 57.9 µM), without a hit: at the top dose signal change, negative = less light. human cells with a luciferase reporter of 2A StopGo recoding; control for the full effect not named in the record; active = well fitted falling curve with a large enough effect; inconclusive = small, poorly fitted or top-dose-only effect; inactive = no such curve, though single readings can be large or run the other way; tested in HEK293T cells; also: % is scaled to controls: 0 for no effect and ±100 for the full control effect; nearly all actives have a fitted effect of over 45% in size; luciferase light after 4 h
Cruzain inh noDet: blocks cruzain activity in detergent-free assay; actives 2.3% (n = 200,000); AID 1476; Potency, µM, inactives show max response, negative = inhibition, actives largely listed as inhibitors; purified cruzain, Z-FR-AMC fluorescence, no detergent;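 also: plate controls were enzyme without inhibitor for no effect and buffer without enzyme for full effect; nearly all actives have a fitted effect of over 40% in size; top concentration of the series not given in the record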
Target sequence (P25779 123-467 limits assumed): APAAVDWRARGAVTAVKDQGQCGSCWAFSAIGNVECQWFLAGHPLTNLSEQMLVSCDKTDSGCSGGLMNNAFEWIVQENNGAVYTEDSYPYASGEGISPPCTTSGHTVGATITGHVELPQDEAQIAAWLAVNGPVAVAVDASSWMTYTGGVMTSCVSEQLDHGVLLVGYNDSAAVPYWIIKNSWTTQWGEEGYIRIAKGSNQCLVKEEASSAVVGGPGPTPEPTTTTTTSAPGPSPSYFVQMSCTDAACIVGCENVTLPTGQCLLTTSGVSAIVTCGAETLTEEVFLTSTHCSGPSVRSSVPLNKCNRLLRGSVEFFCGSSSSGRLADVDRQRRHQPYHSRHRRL
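Detergent-free condition (0.00005% Triton X-100) in acetate buffer pH 5.5 with DTT. 1.5 nM enzyme and compound were pre-mixed 15 min, then 2 uM Z-FR-AMC substrate added; reaction progress from fluorescence change between first and third reads (60 s).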
Marburg entry inh: Marburg virus entry inhibition | actives 1.8% (n = 300,000) | Marburg virus pseudotyped entry inhibition, cell reporter; control for the full effect not named in the record; about a third of the inactives were read at about 46 µM | Potency, µM (top dose mostly 37.8 µM), without a hit: at the top dose activity change, negative = inhibition, actives largely listed as inhibitors; active = well fitted inhibition curve with a large enough effect; inconclusive = small, poorly fitted or top-dose-only effect, or effect the other way; inactive = flat fitted curve, though single readings scatter; tested in HEK293 cells; about a fifth of its hits are not listed in these tables; also: % is scaled to controls: 0 for no effect and ±100 for the full control effect; luciferase read-out
LASV entry inh: inhibitors of Lassa virus binding or cell entry | AID 540256 | Lassa virus pseudotype entry inhibition, cell reporter; control for the full effect not named in the record | Potency, µM (titrated, usually from 37.9 µM), without a hit: at the top dose activity change, negative = inhibition, usual class: inhibitors | actives 1.2% (n = 300,000); active means well fitted inhibition curve with a large enough effect; inconclusive means small, poorly fitted or top-dose-only effect, or effect the other way; inactive means flat fitted curve, though single readings scatter; tested in HEK293 cells; also: % is scaled to controls: 0 for no effect and ±100 for the full control effect; nearly all actives have a fitted effect of over 50% in size; luciferase read-out
Cruzain inh Det: cruzain (T. cruzi) inhibition with detergent; actives 0.43% (n = 200,000); Potency, µM, inactives show max response, negative = inhibition, most hits filed as inhibitors; purified cruzain, Z-FR-AMC fluorescence, 0.01% Triton; P25779;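 also: plate controls were neutral wells for no effect and buffer without enzyme for full effect; nearly all actives have a fitted effect of over 40% in size; top concentration of the series not given in the record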
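Detergent-containing run (0.01% Triton X-100) in acetate buffer pH 5.5 with 5 mM DTT: enzyme at 1.5 nM final, 15 min compound preincubation at room temperature, then 2 uM Z-FR-AMC substrate. Activity taken as 60 s fluorescence increase at 360/450 nm.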
NS1 inh: influenza NS1 inhibition; S. cerevisiae slowed by influenza A NS1, growth recovery by OD600; actives 0.4% (n = 270,000); Potency, µM (titrated, usually from 46.1 µM), without a hit: at the top dose activity, positive = more growth; AID 2326; active means well fitted rising curve with a large enough effect; inconclusive means small, poorly fitted or top-dose-only effect; inactive means no such curve, though single readings can be large or run the other way; also: nearly all actives have a fitted effect of over 50% in size
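S. cerevisiae expressing influenza A NS1, grown in glucose, washed, then diluted 1:100 into pH 6.0 -URA galactose medium with 23 nl compound. Growth recovery read as OD600; NS1-free strain serves as control.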
Starred values were filed as active, the others as inactive; ? = inconclusive; / = not tested or not shown; & = joins results of further samples; [ ] = another dose, or the depositor's remark. Unless noted, calls follow the shape of the dose curve; as a rule, active = well fitted curve in the direction sought with a large enough effect; inconclusive = small, poorly fitted or top-dose-only effect, or another doubt; inactive = no such curve, though single readings can be large; an effect the other way counts as inactive or inconclusive. Potency is read from the fitted curve at half-maximal effect.

No.	structure	RE007 growth inh	SARS PLpro yeast	2A StopGo	Cruzain inh noDet
1	Cc1cccc(CCNC(=O)CCS(=O)(=O)c2cc3c(cc2C)NC(=O)CO3)c1	-7%	-2%	-18%&-3%	12%
2	CN(CCc1ccccc1)Cc1c[nH]c2ccccc12	-10%	-5%	-25%	/
3	Clc1ccc(C2=Nn3c(nnc3-c3n[nH]c4c3CCC4)SC2)cc1Cl	6%	-9%	?	?
4	CC(C)c1cc(Nc2cccc(O)c2)cc(C(C)C)c1O	/	-4%	/	-11%
5	O=C(CSc1nnc(-c2ccccc2F)o1)NC1CCCCC1	-6%	-9%	0%	/
6	Nn1c(SCC(=O)NC2CCCc3ccccc32)nnc1-c1ccc(Cl)cc1Cl (stereo not given)	/	-11%	/	6%
7	O=C(CSc1ccc(-c2ccc(F)cc2)nn1)NCCc1ccccc1	-19%	3%	3%	/
8	O=C(O)Cn1nc(-c2ccccc2)oc1=O	23%	0%	4%	-6%
9	O=C(Oc1ccccc1Cl)c1ccc(-n2cncn2)nc1	2%	-3%	-9%	0%
10	COc1ccccc1/C=C/CN1CCC(n2nccc2NC(=O)C2CC2)CC1	7%	0%	-19%	/
11	Cc1ccc(-c2nn3c(=O)cc(CN4CCN(C(=O)c5ccc(C(C)(C)C)cc5)CC4)nc3s2)cc1	/	/	-14%	-3%
12	COCCOC(=O)c1[nH]c2c(c1C)C(=O)CC(c1ccc(F)cc1)C2 (stereo not given)	13%	0%	-10%	-18%

No.	Marburg entry inh	LASV entry inh	Cruzain inh Det	NS1 inh
1	/	-10%[46.1 µM]	0.1%	-8%
2	/	/	/	-3%
3	?	?	-10%	27%
4	-9%	/	-0.7%	-25%
5	5%[46.1 µM]	?	/	4%
6	2%	/	-9.3%	-5%
7	5%	-3%	/	/
8	11%	14%	3.6%	1%
9	12%	0%	2.5%	7%
10	-29%[46.1 µM]	-4%[46.1 µM]	/	-9%
11	/	0%[46.1 µM]	0.4%	/
12	/	/	3.2%	-46%

A different layout for part of the listing above.
Results follow in this order: RE007 growth inh, SARS PLpro yeast, 2A StopGo, Cruzain inh noDet, Marburg entry inh, LASV entry inh, Cruzain inh Det, NS1 inh
2: CN(CCc1ccccc1)Cc1c[nH]c2ccccc12
    -10%, -5%, -25%, /, /, /, /, -3%
12: COCCOC(=O)c1[nH]c2c(c1C)C(=O)CC(c1ccc(F)cc1)C2 (stereo not given)
    13%, 0%, -10%, -18%, /, /, 3.2%, -46%

Whole records, quoted from the list.
O=C(O)Cn1nc(-c2ccccc2)oc1=O across the screens: RE007 growth inh: 23%; SARS PLpro yeast: 0%; 2A StopGo: 4%; Cruzain inh noDet: -6%; Marburg entry inh: 11%; LASV entry inh: 14%; Cruzain inh Det: 3.6%; NS1 inh: 1%
COc1ccccc1/C=C/CN1CCC(n2nccc2NC(=O)C2CC2)CC1 across the screens: RE007 growth inh: 7%; SARS PLpro yeast: 0%; 2A StopGo: -19%; Cruzain inh noDet: /; Marburg entry inh: -29%[46.1 µM]; LASV entry inh: -4%[46.1 µM]; Cruzain inh Det: /; NS1 inh: -9%

Other entries.
No.	structure	RE007 growth inh	SARS PLpro yeast	2A StopGo	Cruzain inh noDet
13	CC(=O)C1CCC2C3CCC4CC(=O)CCC4(C)C3C(O)CC12C (stereo not given)	3%	/	-31%	/
14	Cc1ccc(Cn2nc(C)c(C(=O)NCC(c3cccs3)N3CCOCC3)c2Cl)cc1 (stereo not given)	-6%	/	?	/
15	CCCCNC(=O)/C=C1\Sc2ccccc2NC1=O	0%	12%	28%	2%
16	O=[N+]([O-])c1ccc(O)c(/C=N/n2cnnc2)c1	-16%	/	-15%	1%
17	Clc1ccccc1Cc1cn2cc(-c3ccccc3)nc2s1	/	/	-20%	-1%
18	O=C(c1ccccc1Cl)N1CCN(S(=O)(=O)N2CCCCC2)CC1	-5%	3%	-7%	/
19	CC(C)Nc1nc(Oc2ccc(Cl)cc2)cc(C(F)(F)F)n1	10%	-8%	-18%	-3%
20	CNC(=O)Nc1ccccc1NC(=O)NC	-11%	2%	-5%	11%
21	O=S(=O)(NCCc1ccccc1)c1ccc(Br)s1	-7%	-7%	101%[activator]	/
22	CCn1c(SCC(=O)NNC(=O)c2ccc(C)cc2)nnc1-c1ccncc1	1%	/	2%	/
23	Cc1cc(C)c2c(NC(=O)c3ccccc3)c(C(=O)Nc3ccc(F)cc3)sc2n1	/	/	-8%	5%
24	COc1ccccc1NC(=O)C1=C(C)Nc2nc(-c3cccs3)nn2C1c1cccnc1 (stereo not given)	-8%	-7%	?	16µM*

No.	Marburg entry inh	LASV entry inh	Cruzain inh Det	NS1 inh
13	2%	2%	/	/
14	-13%	13µM*	/	/
15	-5%	12%	-2.8%	9%
16	1%	?	-6.7%	-28%
17	?	?	-1.9%	/
18	1%[46.1 µM]	8%	/	11%
19	-2%	0%	-1.4%	-11%
20	24%	2%	-2.5%	-8%
21	?	6%	/	-43%
22	8%	5%	/	/
23	/	-26%[46.1 µM]	0.6%	/
24	/	/	0.1%	0%

Further results
No.	structure	RE007 growth inh	SARS PLpro yeast	2A StopGo	Cruzain inh noDet
25	COc1cccc(-c2cc(C(F)(F)F)c(C#N)c(=O)[nH]2)c1	-14%	-1%	-3%	/
26	CN1C(=O)CC(c2ccccc2)Nc2ccccc21 (stereo not given)	-1%	-2%	13%	/
27	CC1=C(C(N)=O)C(c2ccccc2[N+](=O)[O-])n2ncnc2N1 (stereo not given)	8%	2%	-7%	/
28	CN(CC(=O)Nc1cccc(F)c1)C(=O)CNS(=O)(=O)c1ccc(N(C)C)c([N+](=O)[O-])c1	-8%	3%	21%	/
29	COCCOc1ccc(C(F)(F)F)cc1NC(=O)COC(=O)c1c(C)noc1C	-7%	-2%	-27%	17%
30	CCCC(=O)OCC(=O)Nc1ccc(OC(F)F)cc1	-5%	5%	33%[activator]	4%
31	COC(=O)c1[nH]c2ccccc2c1Sc1ccccc1	-3%	-1%	-5%	/
32	COc1ccc(CNC(=O)COC(=O)c2cc(S(=O)(=O)N3CCOCC3)ccc2O)cc1OC	15%	6%	-8%	/
33	Cc1cccc(N2CCN(Cc3oc(CO)cc(=O)c3O)CC2)c1C	-1%	?	-23%	1%
34	CC1C/C(=N/N=C2/NC(=O)CS2)CC(C)(C)C1 (stereo not given)	2%	-6%	-19%	-5%
35	CN1C(=S)SC(/[N+]([O-])=C/c2ccc(Cl)cc2)C1(C)C (stereo not given)	2%	-1%	11%	/
36	COC(=O)c1sc(C(F)(F)F)c(-c2ccccc2)c1S(=O)(=O)NC(C)(C)C	8%	0%	-38%	/

No.	Marburg entry inh	LASV entry inh	Cruzain inh Det	NS1 inh
25	1%[14.2 µM]	3%	/	/
26	3%	4%	/	-1%
27	/	/	/	-1%
28	-1%	-16%	/	/
29	-8%	2%	0.4%	-6%
30	-10%	8%	2.1%	-3%
31	/	/	/	7%
32	3%	1%	/	/
33	-17%	?	3.0%	3%
34	1%[46.1 µM]	0%	9.1%	-3%
35	1%[46.1 µM]	-13%	/	-32%
36	/	/	/	2%

(continued)
No.	structure	RE007 growth inh	SARS PLpro yeast	2A StopGo	Cruzain inh noDet
37	CCOc1cc(/C=C/C(=O)c2ccc3c(c2)OCCO3)ccc1OCC(=O)N(C)C	17%	1%	14µM*	/
38	CC(OC(=O)Cn1cnc2c1c(=O)n(C)c(=O)n2C)C(=O)N(C)c1ccccc1 (stereo not given)	2%	-3%	0%	/
39	COc1ccc(/C=N/N=C2/NC(=O)C(CC(=O)NC(C)C)S2)cc1 (stereo not given)	0%	0%	2%	/
40	COCCn1c(SCC(=O)Nc2sc(C)c(C)c2C#N)nnc1-c1ccc(OC)cc1	2%	1%	7%	21%
41	CC12CCC(=O)N1C(C(=O)OCC(=O)Nc1cccc(S(=O)(=O)N3CCCCCC3)c1)CS2 (stereo not given)	26%	?	-11%	27%
42	Cc1oc(-c2ccc(C(=O)NCc3ccc(Cl)cc3)cc2)nc1CS(=O)(=O)c1ccccc1	/	/	-26%	25µM*
43	CCCCOc1ccc(S(=O)(=O)N2CCCCC2)cc1	7%	2%	-15%	/
44	COc1ccc(CN2CCCCCC2)c(C)c1C	-7%	-5%	-2%	-11%
45	CSc1ccccc1NC(=O)CN(C)CC(=O)NCC(=O)Nc1ccc(F)cc1	3%	-7%	-8%	/
46	O=C(Cc1ccc(F)cc1)Nc1ccccc1N1CCCC1	1%	1%	-11%	/
47	COc1ccc(S(=O)(=O)C(C#N)c2nc3ccccc3nc2N2CCC(C)CC2)cc1 (stereo not given)	/	-1%	/	-15%
48	Cc1cc(/C=N/NC(=O)c2cccc([N+](=O)[O-])c2)c(C)n1-c1ccccc1	3%	16%	13%	?
49	O=C(COc1ccc(S(=O)(=O)N2CCOCC2)cc1Cl)NCc1ccco1	-4%	3%	-16%	/

No.	Marburg entry inh	LASV entry inh	Cruzain inh Det	NS1 inh
37	?	/	/	-7%
38	-10%[46.1 µM]	?	/	/
39	7%	?	/	-4%
40	-10%&-10%	2%	-6.4%	-11%
41	2%	3%	-5.7%	-6%
42	/	-17%[46.1 µM]	-4.4%	/
43	/	/	/	-13%
44	?	-19%	0.5%	-4%
45	-14%	?	/	/
46	/	/	/	-4%
47	0%	/	-8.7%	-4%
48	?	-3%	2.3%	-8%
49	-2%[46.1 µM]	-11%	/	2%

A few values from the results shown.
Marburg entry inh, cpd 45 → -14%
NS1 inh, cpd 46 → -4%
